Screening results as filed in PubChem.
TRPV1 PAM: potentiators of human vanilloid receptor 1 (TRPV1) | actives 0.02% (n = 320,000) | TRPV1-expressing cells, Fluo-8 calcium influx, capsaicin EC20 potentiation; host cell line not named in the record; control for the full effect not named in the record | Q8NER1 | potentiation, % at 8.33 µM; active means potentiation above 80%; inconclusive means 30% to 80%; inactive means below 30%; further: 0% is about no effect
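Cells expressing TRPV1 were dye-loaded with Fluo-8 and read kinetically: 10 s baseline, 3 min after compound (agonist portion), then 2 min after EC20 capsaicin (allosteric enhancer portion). Calcium-bound dye fluorescence at 480/520 nm.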
Sfp inh: inhibitors of Bacillus subtilis Sfp phosphopantetheinyl transferase | Biochemical Sfp PPTase activity, qHTS | Potency, µM, without a hit: max response, negative = inhibition, most hits filed as inhibitors | actives 3.5% (n = 310,000); active means well fitted inhibition curve with a large enough effect; inconclusive means small, poorly fitted or top-dose-only effect, or another doubt; inactive means no such curve, though single readings can be large or run the other way;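 further: the enzyme is Sfp with the accession as filed and its product quenches rhodamine fluorescence; potency means the concentration at half of the fitted maximal effect; 0% = enzyme reaction without inhibitor and -100% = no enzyme wells; top concentration of the series not given in the record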
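With Hepes-Na pH 7.6 buffer containing 10 mM MgCl2, Sfp (15 nM) modified BHQ-2-YbbR (12.5 uM) using rhodamine-CoA (5 uM). Two reads 30 minutes apart at 525/598 nm yielded each well's rate.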
ClpP mod: qHTS Assay for Activators of ClpP; actives 1.9% (n = 340,000); ATP-dependent Clp protease proteolytic subunit (Bacillus subtilis (strain 168)), P80244; purified B. subtilis ClpP, FRET peptide cleavage, 20 min; Potency, µM (titrated, usually from 57.5 µM), without a hit: top-dose activity change, negative = active; active = well fitted falling curve with a large enough effect; inconclusive = small, poorly fitted or top-dose-only effect; inactive = no such curve, though single readings can be large or run the other way; further: potency means the concentration at half of the fitted maximal effect; the source files actives as falling curves though it sought activators and does not explain the sign; nearly all actives have a fitted effect of over 65% in size; many hits overshoot -100%
Target sequence (P80244 whole entry, looked up): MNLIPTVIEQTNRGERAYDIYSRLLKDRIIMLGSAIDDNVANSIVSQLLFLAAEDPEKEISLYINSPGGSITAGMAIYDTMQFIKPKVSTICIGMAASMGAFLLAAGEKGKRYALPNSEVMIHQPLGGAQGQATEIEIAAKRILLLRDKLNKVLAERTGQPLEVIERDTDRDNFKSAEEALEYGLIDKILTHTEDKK
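Purified B. subtilis ClpP, 10 microg/mL final in Tris/HCl pH8 with KCl, BSA, glycerol and Tween-20, cleaved an Abz/nitrotyrosine-quenched decapeptide. Fluorescence (ex 320, em 430) was read at 0 and 20 min at room temperature. Delta was normalized to 5.8 microM ADEP and DMSO/no-enzyme controls.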
Menin-MLL FL inh: displaces fluorescein MLL peptide from human menin | Fluorescence polarization, fluorescein-MLL peptide displacement from menin | FP activity change, % at 61.4 µM | 290,000 tested, under 10 active | AID 1766; inconclusive = falling polarisation curve, or a change in total fluorescence; inactive = total fluorescence flat and polarisation flat or rising; no compound was filed as active; the % refers to the polarisation; negative = inhibition;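 further: % of control where 0% means no effect; inhibitors lower the polarisation; unlabelled MLL peptide was the positive control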
PINK1 expr mod: PINK1 expression modulation. PINK1 immunofluorescence, high-content cytometry, 24 h. Potency, µM (highest dose often 76.6 µM), for the others: top-dose activation (PINK1 increase), usual class: activators. actives 0.2% (n = 410,000). AID 624263; active = well fitted activation curve with a large enough effect; inconclusive = small, poorly fitted or top-dose-only effect; inactive = flat fitted curve, though single readings scatter; cell line not stated here;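 further: potency means the concentration at half of the fitted maximal effect; % of control where 0% means no effect; nearly all actives have a fitted effect of over 65% in size; a mitochondrial uncoupler was the plate control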
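Readout is PINK1 immunofluorescence, quantified alongside mitochondrial, cell and nuclear markers by laser-scanning microplate cytometry. Cells from a stable line were exposed to compound titrations (5 concentrations) for 24 hours, with CCCP controls.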
TRPML1 agonist: agonists of human TRPML1 channel; Q9GZU1; TRPML1-expressing cells, Ca2+ dye fluorescence, FDSS; host cell line not named in the record; reference of the full effect not given here; activation, % (test concentration not listed); actives 0.12% (n = 410,000); AID 624414; in the data active = activation above about 50%; inconclusive = about 30% to 50%; inactive = below about 30%; further: 0% is about no effect; the text of the record puts the active cut at 80%
Target sequence (Q9GZU1 whole entry, looked up): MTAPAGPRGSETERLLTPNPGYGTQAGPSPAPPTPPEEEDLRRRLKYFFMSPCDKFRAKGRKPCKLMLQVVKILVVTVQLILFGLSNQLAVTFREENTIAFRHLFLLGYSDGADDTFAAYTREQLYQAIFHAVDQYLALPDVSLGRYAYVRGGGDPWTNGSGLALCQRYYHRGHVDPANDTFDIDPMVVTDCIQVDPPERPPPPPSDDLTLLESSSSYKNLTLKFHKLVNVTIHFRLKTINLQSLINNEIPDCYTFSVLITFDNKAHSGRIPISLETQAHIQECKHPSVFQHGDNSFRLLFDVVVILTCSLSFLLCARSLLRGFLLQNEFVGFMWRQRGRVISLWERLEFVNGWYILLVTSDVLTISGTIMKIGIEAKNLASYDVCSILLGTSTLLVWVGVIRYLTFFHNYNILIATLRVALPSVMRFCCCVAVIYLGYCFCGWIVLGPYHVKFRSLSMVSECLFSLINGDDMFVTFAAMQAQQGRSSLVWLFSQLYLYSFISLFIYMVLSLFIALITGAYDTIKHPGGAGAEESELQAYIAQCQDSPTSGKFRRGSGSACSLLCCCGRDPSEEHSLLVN
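Calcium fluorescence on an FDSS kinetic reader gave the read-out. Tet-induced TRPML1-DL cells were plated overnight, dye-loaded (Ca8 with quencher, 45-90 min, room temperature, dark), then read 110 s after compound addition, and again 110 s after 4uM final 54-4 (EC80).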
TRPML1 blocker: blocks the human TRPML1 channel | TRPML1-inducible cells, Ca2+ dye fluorescence, FDSS; active compounds read low; inhibition of EC80 agonist-evoked calcium signal | Q9GZU1 | AID 624415 | activity change, negative = inhibition, % (test concentration not listed) | actives 0.02% (n = 390,000); in the data active means activity change below about -50%; inconclusive means about -30% to -50%; inactive means above about -30%;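 further: stimulus is agonist 54-4 at its EC80 concentration; on the % scale 0 is the no-effect control and ±100 the full control effect; compound concentration not given in the record; the text of the record puts the active cut at -80%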
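TRPML1-DL cells, Tet-induced overnight (~16 h, 37 °C) at 1,500 cells/well, were loaded with Ca8 no-wash dye plus quencher for 45-90 min at room temperature. Compounds were pinned during FDSS kinetic reading; agonist 54-4 at EC80 (4 uM final) then added.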
* hit, by the source's call; ? = inconclusive; nt = no result given; [ ] = dose if it differs, or a comment.

SMILES	TRPV1 PAM	Sfp inh	ClpP mod	Menin-MLL FL inh	PINK1 expr mod	TRPML1 agonist	TRPML1 blocker
C=CCOc1cccc(C2C(C(=O)c3ccco3)=C(O)C(=O)N2CCN(CC)CC)c1 (configuration not stated)	-1	1%	-6.6%	1.1	-0.2%	-0.1	0
CCc1ccc(NC(=O)Cn2cc([N+](=O)[O-])nc2C)cc1	-6	15%	-0.7%	3.1	-0.2%	0.6	-13
COc1ccc(C(C(=O)NC2CCCCC2)N(C(=O)CCl)c2ccc(C)cc2)cc1 (configuration not stated)	-11	24%	-8.3%	3.0	-2.1%	1.0	-1
O=C(CSCc1ccccc1)Nc1ccc(S(=O)(=O)N2CCOCC2)cc1	-13	-2%	-0.1%	1.9	-2.5%	-0.3	12
C#CCOCCOCCOCCNc1nc(N2CCN(C(=O)CCCCCCCCCCNC(=O)Cn3cc(CCCCCN)nn3)CC2)nc(N2CCN(C(=O)CCCCCCCCCCNC(=O)[C@H]([C@@H](C)CC)n3cc(CCCCN=C(N)N)nn3)CC2)n1	?	nt	2.1%	nt	-1.5%	-1.1	7
C/C(CC(C)C)=N\NC(=O)Nc1ccccc1	-11	-8%	?	3.3	-1.6%	0.4	26
O=C(NCc1cn(-c2ccccc2)nc1-c1ccc(F)cc1)c1cccc([N+](=O)[O-])c1	3	12%	nt	3.4	1.2%	3.4	24
Cc1c(NC(=O)c2ccc(Br)o2)c(=O)n(-c2ccccc2)n1C	11	14%	0.0%	3.2	4.8%[38.3 µM]	0.3	-2
CCOCc1cc(CN2CCCC(CNC(=O)c3ccco3)C2)ccc1OC (configuration not stated)	-1	2%	1.6%	nt	-0.6%	1.2	24
O=C(NNC1=NCCC1)c1ccc(Br)cc1	3	21%	-3.6%	2.6	-3.4%	-0.4	32
O=C1CC/C=C\C[C@@H](CC(=O)N(CCO)Cc2ccccc2)C(=O)N[C@H](Cc2c[nH]c3ccccc23)CO1	nt	nt	-0.1%	nt	-0.2%	-0.4	16
C#CCN(C[C@@H]1[C@@H](OC(=O)Nc2cccs2)[C@@H](OC(=O)Nc2cccs2)Cn2c(=O)ccc(=O)n21)S(=O)(=O)c1ccc(C)cc1	nt	nt	0.0%	nt	-1.8%	-0.2	-8
O=[N+]([O-])c1ccccc1S(=O)(=O)N(CC1CO1)c1ccccc1 (configuration not stated)	-1	14%	nt	2.2	3.2%	0.3	-7
CC(C)(C)c1ccc(OC(=O)c2ccc(-n3cncn3)nc2)cc1	0	15%	nt	1.6	nt	nt	nt
O=C(NCc1ccco1)c1cccc(Br)c1	7	71µM*	1.3%	1.2	1.4%	nt	nt
O=C(NCc1cccc(C(F)(F)F)c1)c1csc([C@@H]2O[C@H](CO)[C@H](O)[C@H](O)[C@H]2O)n1	nt	nt	0.0%	nt	1.8%	-0.5	nt
Cc1ccc(NC(=O)Nc2cccc([N+](=O)[O-])c2)nc1	-16	13%	nt	-4.9	0.8%	0.6	-8
COc1ccc(CNC(=O)CCc2nc3cc(S(=O)(=O)N(C)C)ccc3n2C)cc1OC	2	26%	?	-6.9	1.6%	-0.4	2
COC(=O)c1c(-c2ccccc2OC)sc2cc3c(cc12)OCO3	nt	nt	4.2%	nt	2.2%	1.1	18
CCOc1ccc(NC(=S)NC(=O)c2cnn(CC)c2)c([N+](=O)[O-])c1	-1	-8%	-0.2%	-5.0	4.8%	-0.4	21
O=C(CSc1nnc(-c2ccncc2)n1-c1ccc(Cl)cc1)N1CCOCC1	-2	27%	-1.4%	9.6	-0.2%[38.3 µM]	-0.4	-17
COc1ccc(-c2ccc(F)cc2)cc1C1C2C=CCC(C)C2C(=O)N1Cc1ccccc1 (configuration not stated)	nt	6%	nt	1.7	nt	5.4	74
CCN(CCNC(=O)CN(C)S(=O)(=O)c1cccc2nsnc12)c1ccccc1	-3	-13%	-0.4%	1.4	-2.0%[38.3 µM]	0.3	-8
O=C(Nc1cccc([N+](=O)[O-])c1)C(=O)N1CCCCC1	-1	6%	-1.8%	2.3	-0.5%	0.6	-2
COc1ccc(C(=O)NNC(=S)NC(=O)c2ccc(Br)o2)cc1OC	-5	20%	-0.9%	-2.8	-0.9%	0.9	15

Entries above that have fluorine, in the order listed:
SMILES	TRPV1 PAM	Sfp inh	ClpP mod	Menin-MLL FL inh	PINK1 expr mod	TRPML1 agonist	TRPML1 blocker
O=C(NCc1cn(-c2ccccc2)nc1-c1ccc(F)cc1)c1cccc([N+](=O)[O-])c1	3	12%	nt	3.4	1.2%	3.4	24
O=C(NCc1cccc(C(F)(F)F)c1)c1csc([C@@H]2O[C@H](CO)[C@H](O)[C@H](O)[C@H]2O)n1	nt	nt	0.0%	nt	1.8%	-0.5	nt
COc1ccc(-c2ccc(F)cc2)cc1C1C2C=CCC(C)C2C(=O)N1Cc1ccccc1 (configuration not stated)	nt	6%	nt	1.7	nt	5.4	74

(further entries)
SMILES	TRPV1 PAM	Sfp inh	ClpP mod	Menin-MLL FL inh	PINK1 expr mod	TRPML1 agonist	TRPML1 blocker
CCS(=O)(=O)N1N=C(c2ccccc2)CC1c1ccc2nccnc2c1 (configuration not stated)	-8	7%	0.0%	?	18%	-0.3	12
Cc1ccc(Cn2cnc3c(nnn3Cc3ccc(Cl)cc3)c2=O)cc1	-4	11%	1.6%	0.5	18%[38.3 µM]	2.6	27
C#CCOCCOCCOCCNc1nc(N2CCN(C(=O)[C@H]([C@@H](C)CC)n3cc(CCC(=O)O)nn3)CC2)nc(N2CCN(C(=O)[C@H](C)n3cc(CCCN=C(N)N)nn3)CC2)n1	0	10%	3.0%	2.7	2.6%	-0.8	-10
CC(C)Cn1c(-c2ccccc2)nc(=S)c2c1CCCC2	15	10%	0.7%	0.1	0.2%	1.0	50
CC1=C(C(=O)Nc2ccc(Cl)cc2)C(c2ccccc2)n2ncc(C(=O)Nc3ccccc3)c2N1 (configuration not stated)	nt	nt	5.0%	nt	2.4%	4.3	-2
CC(O)(c1ccc(F)c(F)c1)c1nc(-c2csc3ccccc23)cs1 (configuration not stated)	nt	nt	-3.1%	nt	18%	0.2	nt
COc1cc(OC)cc(C(=O)NCC(=O)NCc2ccccn2)c1	nt	nt	-3.8%	nt	-1.5%	0.1	-9
O=C(Nc1ccccc1C(=O)N1CCCC1)c1cccc(S(=O)(=O)N2CCCCCC2)c1	11	-3%	0.0%	0.8	1.0%	-0.1	4
O=C(/C=C/c1ccc(Br)o1)NCCCN1CCOCC1	17	18µM*	-8.7%	-4.8	0.8%	0.8	-1
CC(CCc1ccccc1)NS(=O)(=O)c1ccccc1 (configuration not stated)	-15	1%	-2.0%	0.3	0.0%	5.1	-19
Clc1ccc(NCc2cccnc2)cc1	-3	11%	-3.2%	-2.4	-1.7%	-1.0	-8
CCOC(=O)N(C)C[C@H]1OCc2cnnn2CCCC(=O)N([C@H](C)CO)C[C@H]1C	nt	nt	-0.2%	nt	0.5%	-0.1	7
CC(C)N1CC(C(=O)Nc2ccc(Br)c(Cl)c2)CC1=O (configuration not stated)	-4	5%	0.8%	3.7	-0.1%	0.8	6
O=C(CN1C(=O)COc2ccc(S(=O)(=O)N3CCCC3)cc21)N1CCN(c2ccccc2F)CC1	nt	nt	-0.5%	nt	0.3%	4.5	-13
O=C(Cc1ccccc1)Nc1ccc(SC(F)F)cc1	-3	-1%	-1.2%	1.9	6.4%	-0.2	19
COc1ccc(C2C(C(=O)c3cc4cccc(OC)c4o3)=C(O)C(=O)N2CCCN(C)C)cc1OC (configuration not stated)	1	7%	nt	-8.8	nt	nt	nt
CNC[C@@H]1Oc2c(NC(=O)Nc3ccc(F)cc3)cccc2C(=O)N([C@H](C)CO)C[C@@H]1C	nt	nt	-3.6%	nt	2.2%	0.3	13
Cc1ccc(C)c(Cn2c(C3CC(=O)N(c4ccccc4C)C3)nc3ccccc32)c1 (configuration not stated)	nt	nt	-3.4%	nt	13%	-0.5	27
CCN1CCOC(=O)C1CC(=O)Nc1cc(Cl)ccc1C (configuration not stated)	nt	nt	-2.3%	nt	2.0%	-0.7	16
O=C(CCS(=O)(=O)c1cccc2nsnc12)NCc1ccccc1	19	10%	-7.7%	6.5	-0.2%	-0.7	19
Cc1ccn2c(=O)cc(COc3cccc(NC(=O)Nc4cccc(Cl)c4C)c3)nc2c1	nt	nt	-7.0%	nt	0.1%	0.0	-16
CC1=C(C(=O)NC(C)CCc2ccccc2)C2(CCC(C)CC2)OC1=O (configuration not stated)	-14	2%	nt	0.2	5.6%	-0.8	-6
CCOc1ccc(C(=O)c2oc3ccccc3c2NC(=O)c2cc(-c3ccc(C)cc3)on2)cc1	nt	nt	0.8%	nt	-1.1%	-0.5	-18
CCOc1ccc(S(=O)(=O)N2CCN(C(=O)c3cc(S(=O)(=O)N4CCOCC4)ccc3C)CC2)cc1	12	nt	-1.5%	nt	3.0%	1.3	1
CC(C)(C)c1ccc(-c2nnc(NC(=O)c3ccccc3)s2)cc1	-1	10%	?	1.3	nt	-0.4	-5
(continued)
SMILES	TRPV1 PAM	Sfp inh	ClpP mod	Menin-MLL FL inh	PINK1 expr mod	TRPML1 agonist	TRPML1 blocker
CN(CC(=O)Nc1ncn[nH]1)S(=O)(=O)c1ccc(Cl)cc1	-4	11%	nt	-5.1	3.2%	0.7	12
Cc1ccccc1C1CC(c2ccccc2OC(F)F)Nc2ncnn21 (configuration not stated)	-19	0%	0.4%	-2.7	0.1%	0.6	2
Cc1ccccc1-c1nc(N(C)Cc2ccco2)c2ccccc2n1	nt	-22%	nt	0.3	-0.5%	nt	nt
COc1cc(-c2nnc(SCC(=O)N(C)C3CCCCC3)o2)cc(OC)c1OC	nt	nt	-0.8%	nt	1.1%	-0.5	-2
COc1ccc(NC(=S)Nc2cc(C(F)(F)F)ccc2F)cc1	-5	10%	-1.8%	1.0	5.2%	-1.0	-28
O=C(Cn1cc2c(n1)CCCC2)NCC1CCCO1 (configuration not stated)	-3	7%	2.2%	-0.5	-2.2%	2.2	2
O=C(Cn1nnc(-c2ccccc2)n1)NNC(=O)c1ccccc1	-4	-27%	nt	-1.5	1.9%	-0.8	0
CC1Cc2ccccc2N1C(=O)CN(C)CC(=O)Nc1ccc(F)cc1 (configuration not stated)	?	nt	1.9%	nt	1.3%	0.3	10
